VACV mCherry inh: vaccinia inhibition (mCherry reporter) | Vaccinia virus mCherry reporter infection, fluorescence; about a quarter of the inactives have no number | Potency, µM (top dose mostly 36.5 µM), without a hit: at the top dose activity change, negative = inhibition, actives largely listed as inhibitors | 310,000 tested, 0.63% active | AID 720579; active = well fitted inhibition curve with a large enough effect; inconclusive = small, poorly fitted or top-dose-only effect; inactive = no such curve, though single readings can be large or run the other way; tested in A549 cells; also: nearly all actives have a fitted effect of over 35% in size; inactives centre near -10
VACV Venus inh: vaccinia inhibition (Venus reporter). Vaccinia virus Venus reporter expression, fluorescence. Potency, µM (series often up to 36.5 µM), inactives show at the highest dose activity change, negative = inhibition, actives largely listed as inhibitors. 330,000 tested, 0.46% active. AID 720580; active means well fitted inhibition curve with a large enough effect; inconclusive means small, poorly fitted or top-dose-only effect; inactive means no such curve, though single readings can be large or run the other way; tested in A549 cells; also: nearly all actives have a fitted effect of over 30% in size; inactives centre near -10
The depositor's hits bear a star; i = inactive; ? = inconclusive; / = not tested or not shown; & = joins results of further samples; [ ] = dose if it differs, or a comment. % is scaled to controls: 0 for no effect and ±100 for the full control effect; potency is read from the fitted curve at half-maximal effect.

SMILES	VACV mCherry inh	VACV Venus inh
O=C(Nc1nnc(SCCN2CCOCC2)s1)C1CC(=O)N(c2ccc(F)cc2)C1 (centres undefined)	-6%	4%
O=C(Nc1ccc(Cl)cn1)C1COc2ccccc2O1 (centres undefined)	-3%	-8%
CCOC(=O)C1=C(C)Nc2ccccc2N=C1NC(=O)c1oc2ccccc2c1COC	-15%	-7%
CC(=O)N1c2ccccc2Sc2ccc3ccccc3c21	-13%	-12%
COc1cc2cc(CNc3ccc(C)cc3)c(=O)n(CC(=O)Nc3ccc(C(C)C)cc3)c2cc1OC	-21%	-7%
CCOC(=O)c1c(-c2ccsc2)csc1N	/	-13%
Cc1cc(OCC(=O)N(C)C2CCCCC2)cc(C)c1Cl	i	-18%
CNC(=S)NNC(=O)c1cccn(Cc2cccc(C(F)(F)F)c2)c1=O	-16%	-3%
Cn1c(CN2CCCC2)nc2cc(NC(=O)COc3ccc(Cl)cc3)ccc21	16%	0%
CCN1C(=O)C(=O)N(CC(=O)Nc2ccccc2Oc2ccccc2)C1=O	0%	-8%
O=C(CCCCCn1c(=O)[nH]c2ccsc2c1=O)N1CCN(C2CCCCC2)CC1	-10%	2%
Cc1ccc2oc(=O)n(CC(=O)O)c2c1	i	-1%
Cc1nnc(N/N=C/c2ccco2)n1N	-1%	4%
O=C(CCC(=O)N(CC(=O)NC1CCCC1)c1ccccc1F)Nc1nccs1	-4%	1%
CS(=O)(=O)NCCSCc1c(F)cccc1Cl	/	-13%
O=C(CN1C(=O)NC2(CCc3ccccc32)C1=O)NC1CCCCC1 (centres undefined)	-27%	-16%
CN(C)C(=S)Nc1ccc2c(c1)OCO2	?	-7%
COc1ccccc1/C=N/NC(=O)c1ccc(Br)cc1	?	-15%
COc1ccc(C2(CNC(=O)Cc3ccccc3)CCCC2)cc1OC	-12%	-18%
Cc1cccc(NC(=O)CSCC(=O)NNC(=O)c2ccoc2C)c1	i	-14%
COc1ccc(OCc2nc3ccccc3n2C(C)c2ccccc2)cc1 (centres undefined)	-14%	-8%
COC(=O)CN(C)C(=O)c1ccccc1OC1CCN(S(C)(=O)=O)CC1	i	-7%
CCN1C(=O)[C@H]2[C@H]3CN=C(SCc4ccccc4)N3[C@@](Cc3ccccc3)(C(=O)OC)[C@H]2C1=O	i	-28%
COc1ccc(C(=O)N/C(=C/c2cccc3ccccc23)C(=O)NCCc2c[nH]c3ccccc23)cc1OC	-13%	-7%
CCSc1nc2nc(C)cc(C)n2n1	-19%	-6%
C=CCc1cc(OC)c2c(c1OC)OCO2	-2%	-1%
COC(=O)c1ccc(NC(=O)c2cccn(Cc3ccccc3C)c2=O)cc1	-14%	-23%
CC(C)(C)OC(=O)N(CCc1ccccc1)Cc1ccc(OCc2cccc(NC(=O)c3ccccc3)c2)cc1	2%	-13%
Fc1ccc(CSc2nsc(SCc3ccc(F)cc3)n2)cc1	/	-5%
COCCNC(=O)CSc1nc(-c2ccccc2)[nH]c1-c1ccc(OC)cc1	-9%	-4%
CCc1ccccc1NC(=S)N(CCCN1CCOCC1)Cc1cccs1	-4%	-18%
CC(C)c1onc(C(=O)N(C)C2CCCCC2)c1[N+](=O)[O-]	i	-12%
C=CCSc1nnc(-c2ccccc2N=Cc2c(C)[nH]n(-c3ccccc3)c2=O)c(=O)[nH]1	/	-8%
CCNCC(O)c1cccc(O)c1 (centres undefined)	-12%	-3%
O=C(c1ccc(S(=O)(=O)N2CCCC2)cc1)N1CCCc2ccccc21	/	-19%
Cc1cc2nc(-c3nnnn3-c3c(C)cccc3C)c(=O)[nH]c2cc1C	16%	2%
CCO[C@H]1c2c(ccc3ccc(=O)oc23)OC(C)(C)[C@H]1O	i	-5%
CC12CCC(=O)N1C(C(=O)NNC(=O)COc1cccc(C(F)(F)F)c1)CS2 (centres undefined)	i	-13%
O=C(OCC(=O)N1CCCCCC1)c1ccc(S(=O)(=O)N2CCOCC2)cc1	0%	-8%
Cc1ccc(-n2nnc3c(=O)n(CC(=O)NCC4CCCO4)cnc32)cc1 (centres undefined)	-1%	-9%
COc1ccc(-c2csc(NC(=O)C3CSC4(C)CCC(=O)N34)n2)cc1OC (centres undefined)	-16%	-18%
CCC1(c2ccccc2)SC(=O)NC1=O (centres undefined)	-12%	0%
COc1ccc(N2CCN(C(=O)c3ccc(Cn4nc(C)c([N+](=O)[O-])c4C)o3)CC2)cc1	-6%	-21%
COc1ccc(-c2cc(NCc3ccc(C)cc3)n3cnnc3n2)cc1	-25%	-9%
COc1cccc(Cn2nnc3c(=O)[nH]c(C4CCCN(C(=O)c5ccccc5Cl)C4)nc32)c1 (centres undefined)	-8%	-11%&-1%
CC(=O)Nc1ccc(C(=O)Nc2nc(-c3cc(C)n(Cc4ccccc4)c3C)cs2)cc1	-9%	-2%
COc1ccc(C(=O)COC(=O)COc2cccc3c2OC(C)(C)C3)c(OC)c1	-2%	-2%
O=C1CC(c2ccccc2)n2nc(NS(=O)(=O)c3ccccc3)nc2N1 (centres undefined)	-19%	-8%
COCCn1c(N)c(Sc2ccccc2)c(=O)[nH]c1=O	-14%	10%
Cc1sc(N)c(C#N)c1C	i	-1%
C[C@@H]1CN([C@H](C)CO)C(=O)c2cc(Br)cnc2O[C@H]1CN(C)C(=O)Cc1ccccc1	-17%	-9%
O=C(Nc1ccc2c(c1)OCCO2)c1cnc2ccccn2c1=O	i	-7%
CCN(CC)S(=O)(=O)c1cccc(-n2c(O)c(C=Nc3ccccc3C(=O)O)c3ccccc3c2=O)c1	?	-21%
O=C(O)CC1(CC(=O)Nc2cccc(C(=O)O)c2)CCCC1	i	-14%
CCc1ccc(NC(=O)c2ccc3c(c2)CCN3S(C)(=O)=O)cc1	i	-28%
CCCn1c(=O)c2c(C(F)(F)F)cc(-c3ccco3)nc2n(CCC)c1=O	-4%	20%
Cc1ccc(S(=O)(=O)N2CCCC2CNC(=O)C(=O)NC2CCCC2)cc1 (centres undefined)	-22%	-16%
CC(=O)NC(c1ccccc1)c1nc(-c2ccc(C)c(C)c2)cs1 (centres undefined)	i	-10%
COc1ccc(-c2noc(-c3ccccc3Cl)n2)cc1OC	-4%	-1%
N#CCc1c(C#N)c(N)nc(N2CCCC2)c1C#N	-6%	-9%

New compounds follow.
SMILES	VACV mCherry inh	VACV Venus inh
Cc1ccc(Cn2cccc(NC(=O)CCC3CCCC3)c2=O)cc1	i	-3%
O=C(OCc1cncs1)c1ccccc1Cl	i	-3%
Cc1nn(CC(=O)NCCC2=CCCCC2)c(C)c1[N+](=O)[O-]	-11%	-4%
CC(Oc1ccccc1Cl)C(=O)N(Cc1cccs1)C1CCS(=O)(=O)C1 (centres undefined)	i	-17%
CC(C(=O)OCC(=O)c1ccc(F)cc1)N1C(=O)C2C3C=CC(C3)C2C1=O (centres undefined)	i	-9%
Cc1sc(NC(=O)COc2ccccc2)c(C#N)c1C	-10%	17%
Cc1cccc(NC(=S)NCc2ccncc2)c1C	i	-19%
O=C1c2ccccc2NC(c2ccccc2Br)N1CCCN1CCOCC1 (centres undefined)	i	-14%
CC1C(=O)c2ccccc2CC1C(=O)O (centres undefined)	-16%	10%
COc1ccccc1CNc1nc(-c2ccco2)nn1C(=O)c1ccccc1[N+](=O)[O-]	-22%	-6%
Cc1ccc(S(=O)(=O)N2CCN(C(=O)C(C)Cn3cncn3)CC2)cc1 (centres undefined)	-18%	-19%
COc1ccc2c(CNCc3cccs3)c(C(=O)O)n(Cc3ccc(F)cc3Cl)c2c1	i	-13%
O=C(NCC(O)c1nc2ccccc2[nH]1)c1ccc(Br)cc1 (centres undefined)	i	3%
CC(C)(C)C(=O)Nc1ccc(N2CCN(S(C)(=O)=O)CC2)cc1	-15%	-10%
COC(=O)CSc1nc(C(C)C)nc2ccccc12	-17%	-6%
COc1cc(/C=N/OCC(=O)Nc2cc(C)on2)ccc1OCc1ccccc1	-16%	-11%
Cc1ccccc1C(=O)Nc1ccc2nc(Nc3cccc(C(F)(F)F)c3)cc(C)c2c1	?	?
COc1ccc(C(=O)C[C@@H]2OC[C@H](Cc3ccccc3)N2S(=O)(=O)c2ccc(C)cc2)cc1OC	-15%	-16%
CCC(C)(C)NC(=O)C(c1cccn1C)N(C(=O)Cn1nnc2ccccc21)c1ccc(F)cc1 (centres undefined)	/	-8%
CN(C)Cc1ccccc1-c1cc(N(C)C)ncn1	51%[activator]	78%[activator]
O=C(O)CCCC(=O)NCCCCc1ccccc1	-15%	-6%
COc1ccccc1-n1c(SCC(=O)N2CCCCC2)nnc1-c1ccccc1O	-3%	-2%
CC(C(=O)NCCS(=O)(=O)c1ccc(Cl)cc1)S(=O)(=O)c1ccccc1 (centres undefined)	i	-12%
COc1ccc2c(COC(=O)CNC(=O)C34CC5CC(CC(C5)C3)C4)cc(=O)oc2c1	-13%	-9%
CC(=O)Nc1cc(-c2cccc(C(=O)N(C)C)c2)cn2c(-c3cccc(C(=O)N(C)C)c3)cnc12	-15%	6%
CN(C(=O)c1ccc2c(=O)n3c(nc2c1)CCCCC3)c1ccccc1	-21%	-14%
COc1ccc(CNC(=O)CN(C(=O)c2snc(C(N)=O)c2N)c2ccc(OC)c(OC)c2)cc1	-3%	-5%
Cc1cc(OCC(=O)NCc2nc(-c3ccccc3)no2)c(C)cc1Br	/	-12%
CCOC(=O)CNC(=O)c1cnn2cccnc12	/	-16%
CCc1nc2ccccc2c(C(=O)OCC(=O)N(CC(C)C)c2c(N)n(Cc3ccccc3)c(=O)[nH]c2=O)c1C	-23%	-28%
CC[C@H](C)[C@H](NC(N)=O)C(=O)Nc1ccccc1F	-3%	-1%
CC(C)C[C@H]1CNC(=S)N1CC1CCN(CCCC2CCCCC2)CC1	-22%	-27%
CC(=O)NCC(=O)N(c1ccccc1)C1(C(=O)NC2CCCCC2)CCCCC1	i	-19%
COc1ccc(S(=O)(=O)N2CCN(c3ccc(Cl)c(Cl)c3)CC2)c2ccccc12	-1%	4%
COc1cc(S(=O)(=O)n2ccc(C)n2)c(C)cc1C	i	-15%
NS(=O)(=O)c1ccc(NC(=S)NCc2cccs2)cc1	-3%	-8%
COc1ccc(OC)c(C(=O)COC(=O)c2cccnc2SC)c1	i	-4%
CCOc1ccc(OCC)c(NC(=O)CCc2nc3cccnc3n2-c2ccccc2)c1	-13%	-6%
COc1ccc(C(=O)Nc2nonc2-c2ccc(OC)c(OC)c2)cc1Cl	?	-21%
Cn1c(CNC(=O)c2ccccc2F)nnc1SCC(=O)Nc1nncs1	-5%	0%
CN(C)c1nc(OCC(=O)NC(C)(C)C)nc(N(C)C)n1	-20%	-7%
Cc1cc(C)nc(Sc2nc(C)nc3c2oc2ccccc23)n1	/	?
CCOC(=O)c1cc(S(=O)(=O)N2CCN(c3cc(Cl)ccc3C)CC2)[nH]n1	-15%	-12%
O=C(CSc1nnnn1-c1ccc(F)cc1)NCc1cccs1	i	-10%
CCCCNC(=O)C1c2cc(OC)c(OC)cc2C(=O)N(C)C1c1ccc(OC)cc1 (centres undefined)	-12%	-5%
COc1ccc(C(=O)NCCc2csc(-c3ccc(Cl)cc3)n2)c(OC)c1	4%	-5%
O=C(COc1ccc2ccccc2c1Br)NCc1ccccn1	-17%	-8%
COc1ccc(C2c3c(n(C)c4ccccc34)C(=O)N2CC(=O)Nc2c(C)cc(C)cc2C)cc1 (centres undefined)	-20%	-16%
N#CC1(NC(=O)COC(=O)CCCN=C2NS(=O)(=O)c3ccccc32)CCCCC1	-18%	-7%
O=C(c1cccc(O)c1)N1CCN(C(=O)C2CC2)CC1	-13%	-11%
C=CCC1(CN2CCCCCC2=O)C(=O)NC(=O)NC1=O	/	-15%
CCOC(=O)C(=CNc1ccc(C(O)(C(=O)OCC)C(F)(F)F)cc1C)C(=O)OCC (centres undefined)	?	?
CN(C)c1ccc(C(=O)n2nnc3ccccc32)cc1	i	0%
CCC(C)(C(=O)NC1CCCC1)N(C)C(=O)Cc1c[nH]c2ccccc12 (centres undefined)	2%	-1%
COC(=O)CCCCC1SCC(NC(=O)OC)C1NC(=O)OC (centres undefined)	/	-1%
NC(N)=NNC(=O)c1ccccc1Cl	-12%	-3%

As a short view, some entries already given:
SMILES	VACV mCherry inh	VACV Venus inh
Cn1c(CNC(=O)c2ccccc2F)nnc1SCC(=O)Nc1nncs1	-5%	0%
CN(C)c1nc(OCC(=O)NC(C)(C)C)nc(N(C)C)n1	-20%	-7%
Cc1cc(C)nc(Sc2nc(C)nc3c2oc2ccccc23)n1	/	?
CCOC(=O)c1cc(S(=O)(=O)N2CCN(c3cc(Cl)ccc3C)CC2)[nH]n1	-15%	-12%
O=C(CSc1nnnn1-c1ccc(F)cc1)NCc1cccs1	i	-10%
CCCCNC(=O)C1c2cc(OC)c(OC)cc2C(=O)N(C)C1c1ccc(OC)cc1 (centres undefined)	-12%	-5%
COc1ccc(C(=O)NCCc2csc(-c3ccc(Cl)cc3)n2)c(OC)c1	4%	-5%
O=C(COc1ccc2ccccc2c1Br)NCc1ccccn1	-17%	-8%
COc1ccc(C2c3c(n(C)c4ccccc34)C(=O)N2CC(=O)Nc2c(C)cc(C)cc2C)cc1 (centres undefined)	-20%	-16%
N#CC1(NC(=O)COC(=O)CCCN=C2NS(=O)(=O)c3ccccc32)CCCCC1	-18%	-7%
O=C(c1cccc(O)c1)N1CCN(C(=O)C2CC2)CC1	-13%	-11%
C=CCC1(CN2CCCCCC2=O)C(=O)NC(=O)NC1=O	/	-15%
CCOC(=O)C(=CNc1ccc(C(O)(C(=O)OCC)C(F)(F)F)cc1C)C(=O)OCC (centres undefined)	?	?
CN(C)c1ccc(C(=O)n2nnc3ccccc32)cc1	i	0%

From PubChem

Random draw from the library; overall some 0.87% were active at least once.
